# Screening results: PubChem, National Center for Advancing Translational Sciences (NCATS)
# TRPML1 inh – blocks the human TRPML1 channel. Q9GZU1. activity change, negative = inhibition, % (test concentration not listed). 390,000 tested, 0.02% active. TRPML1-inducible cells, Ca2+ dye fluorescence, FDSS; stronger effect = lower value; inhibition of EC80 agonist-evoked calcium signal; in the data active means activity change below about -50%; inconclusive means about -30% to -50%; inactive means above about -30%;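 also: stimulus is agonist 54-4 at its EC80 concentration; % is scaled to controls: 0 for no effect and ±100 for the full control effect; compound concentration not given in the record; the text of the record puts the active cut at -80%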
# Target sequence (Q9GZU1 whole entry, looked up): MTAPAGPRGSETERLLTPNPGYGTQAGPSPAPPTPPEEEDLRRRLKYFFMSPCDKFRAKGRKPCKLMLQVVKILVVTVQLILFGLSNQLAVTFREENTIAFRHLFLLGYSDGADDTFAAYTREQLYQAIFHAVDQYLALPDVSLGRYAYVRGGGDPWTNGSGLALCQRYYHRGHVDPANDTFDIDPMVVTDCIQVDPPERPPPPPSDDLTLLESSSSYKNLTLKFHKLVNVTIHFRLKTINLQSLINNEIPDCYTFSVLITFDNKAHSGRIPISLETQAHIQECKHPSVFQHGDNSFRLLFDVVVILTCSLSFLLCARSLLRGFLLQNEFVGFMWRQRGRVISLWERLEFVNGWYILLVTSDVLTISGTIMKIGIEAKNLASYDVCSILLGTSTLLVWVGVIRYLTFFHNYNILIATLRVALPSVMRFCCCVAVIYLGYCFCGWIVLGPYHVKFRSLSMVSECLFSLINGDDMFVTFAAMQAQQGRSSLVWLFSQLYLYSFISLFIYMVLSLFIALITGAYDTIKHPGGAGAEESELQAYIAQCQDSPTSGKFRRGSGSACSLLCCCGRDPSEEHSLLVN
#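 Tet-induced TRPML1-DL cells loaded with Ca8 no-wash calcium dye were read kinetically on FDSS. Compound addition was followed by EC80 agonist 54-4 (4 uM final); inhibition was read over 110 s.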
# TRPML1 ag – human mucolipin-1 channel agonism. TRPML1-expressing cells, Ca2+ dye fluorescence, FDSS; host cell line not named in the record; reference of the full effect not given here. activation, % (no concentration beside the values). 410,000 tested, 0.12% active; in the data active = activation above about 50%; inconclusive = about 30% to 50%; inactive = below about 30%; also: 0% is about no effect; the text of the record puts the active cut at 80%
#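 In this qHTS format, compounds were pin-transferred onto Ca8-dye-loaded TRPML1-DL cells induced with Tet overnight, and intracellular Ca2+ fluorescence was recorded kinetically for 110 s after a 10 s baseline. A subsequent 4uM final 54-4 (EC80) addition followed by a second 110 s read served as the antagonist phase.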
# * = called active by the depositor.
canonical_smiles,TRPML1 inh,TRPML1 ag
Cc1ccc(Cl)cc1N1CCN(C(=O)c2ccc(NC(=O)c3nsc4ccccc34)cc2)CC1,-15,1.7
Cc1cc(C)cc(NC(=O)Nc2ccccc2OCc2cc(=O)n3ccccc3n2)c1,8,-0.1
COc1ccccc1N=C1SC(C(=O)Nc2ccccc2OC)CC(=O)N1C (stereo not given),10,0.3
CCc1cccc(NC(=O)CCS(=O)(=O)c2cc(Br)cc3c2N(C(C)=O)CC3)c1,14,1.1
Cc1ccc(NC(=O)CN2C(=O)C(C)(C)c3cc(S(=O)(=O)N4CCCCC4)ccc32)c(Br)c1,-12,2.9
CC(C)c1ccc(S(=O)(=O)c2nnn3c2nc(N2CCOCC2)c2sccc23)cc1,-25,0.0
Cc1cccc(NC(=O)Cc2csc(COc3cccc(C)c3)n2)c1,9,-0.4
CC(=O)Nc1ccc(S(=O)(=O)Nc2ccc(-c3cn4c(C)csc4n3)cc2)cc1,4,0.7
O=C(CSc1ncc2c(n1)-c1ccc(Cl)cc1N(Cc1ccccc1)S2(=O)=O)Nc1ccccc1C(F)(F)F,-4,0.1
O=C(CC1N=C2c3ccccc3N=C(SCc3ccc(F)cc3)N2C1=O)NCCc1ccccc1 (stereo not given),-21,0.1
COc1ccccc1NC(=O)c1c(NC(=O)Cc2ccccc2)sc2c1CCC(C(C)(C)C)C2 (stereo not given),7,-0.5
Cc1cccc(C)c1Nc1nc2ccccc2nc1NS(=O)(=O)c1ccccc1,-15,1.3
Cc1nc(-c2ccc(F)cc2)sc1CCNC(=O)C(=O)Nc1ccc2c(c1)OCCO2,-11,1.1
COc1ccc(CNC(=O)c2nn(C)c3c2CSc2ccccc2-3)cc1,10,2.2
Cc1ccc(NC(=O)CCn2cnc3onc(-c4ccc(F)cc4)c3c2=O)c(Br)c1,20,1.5
COc1cc2ncc3c(-c4ccc(C)cc4)nn(-c4ccc(F)cc4F)c3c2cc1OC,8,0.5
COc1ccccc1CNC(=O)c1ccc(C)c(-n2cnc3cccnc32)c1,3,1.4
CCc1nc(SCC(=O)Nc2ccc(NC(C)=O)cc2)n[nH]1,-10,-0.8
COc1cccc(NC(=O)Cn2cc(C(=O)c3ccc(F)cc3)c(=O)c3cc(OC)ccc32)c1,-8,0.3
CC(C)CCNC(=O)c1ccc2c(c1)N(Cc1ccccc1F)C(=O)c1ccccc1S2(=O)=O,7,-0.4
N#Cc1cc2c(=O)n3ccccc3nc2n(-c2nnc(SCc3ccccc3F)s2)c1=O,-18,2.2
COCCN1C(=O)c2oc3cc(C)cc(C)c3c(=O)c2C1c1cccc(O)c1 (stereo not given),16,1.3
O=C(NCCC1=CCCCC1)c1ccc2c(c1)N(Cc1cccc(Cl)c1)C(=O)c1ccccc1S2=O (stereo not given),7,0.7
Cc1cc(C)c2oc(C(=O)Nc3c(C(=O)Nc4ccccc4)oc4ccccc34)cc(=O)c2c1,-13,0.8
Cc1ccc(C)c(NC(=O)CN(CCc2ccccc2)S(=O)(=O)c2ccccc2)c1,64,-0.2
Cc1ccc(NC(=O)CC2Nc3cccc4cccc(c34)NC2=O)cc1 (stereo not given),-9,0.9
O=S(=O)(c1ccc(Br)cc1)c1nnn2c1nc(Nc1cccc(C(F)(F)F)c1)c1sccc12,35,0.6
COc1ccccc1NC(=O)c1cnc(SCC(=O)N2CCOCC2)n(C)c1=O,-11,1.1
COc1cc(NC(=O)NC(C)c2c(-n3cccc3)sc3c2CCCC3)cc(OC)c1OC (stereo not given),0,-0.7
O=c1c2sc3ccccc3c2n(Cc2ccc(F)cc2)c(=O)n1Cc1ccccc1,7,-0.6
Cc1cccc(CC(=O)N2CC(=O)Nc3ccc(F)cc3C2c2ccccc2)c1 (stereo not given),16,-0.6
COc1cc(NC(=O)c2c(C)nn(-c3ccc(F)cc3)c2-n2cccc2)cc(OC)c1,0,5.8
Cc1nc2ccccc2c(=O)n1-c1ccc(NC(=O)c2ccccc2[N+](=O)[O-])cc1,-9,-0.2
O=C1OC(C(=O)Nc2cccc(Br)c2)Cc2ccccc21 (stereo not given),-8,0.0
COc1ccc(N2CCN(C(=O)CSc3nc4ccccc4nc3Cc3ccc(Cl)cc3)CC2)cc1,1,-0.3
CCOC(=O)c1nc(N2CCN(c3ccc(F)cc3)CC2)c2c(C)noc2n1,-4,1.5
CCOc1ccc(CCNC(=O)Cn2nc(-c3ccc(C)cc3)ccc2=O)cc1OCC,-20,-0.4
Cc1ccc2occ(CC(=O)Nc3ccc(S(N)(=O)=O)cc3)c2c1,-3,0.1
COc1ccc(OC)c(CNC(=O)c2ccc(-c3nc(CSc4ccccc4)c(C)o3)cc2)c1,-4,1.9
COCCn1c(SCC(=O)c2c[nH]c3ccccc23)nc2cc(C(=O)NC(C)C)ccc2c1=O,-12,0.2
CCOC(=O)c1c(S(=O)(=O)N2CCCC(C(=O)NCc3ccccc3Cl)C2)c(C)n(C)c1C (stereo not given),-14,-1.3
Cc1c(CC(=O)NCc2ccccc2)c(=O)oc2c(C)c(O)ccc12,-12,0.7
O=C(CCSCc1ccccc1F)N1CCN(c2ccc(F)cc2)CC1,7,0.6
CCOC(=O)N1CCN(/[N+]([O-])=N/OCOC)CC1,-7,0.8
Fc1ccc(CSc2nncn3c2cc2occc23)c(Cl)c1,-7,-0.5
CCOc1cc(C2c3c(oc4ccccc4c3=O)C(=O)N2Cc2ccc3c(c2)OCO3)ccc1O (stereo not given),-2,0.2
CCOc1ccc2c(c1)c(=O)c(C(=O)c1ccc(CC)cc1)cn2CC(=O)Nc1ccc2c(c1)OCCO2,18,-0.3
COc1ccccc1NC(=O)N1c2ccccc2Sc2ccccc21,11,2.0
Cc1ccc(NC(=O)c2sc(-n3nc(C)c(CCC(C)C)c3C)nc2C)cc1C,10,0.9
CCOC(=O)c1c(C)n(-c2ccccc2)c2ccc(OC(=O)c3ccc(OCC)c(OCC)c3)cc12,-3,0.0
Cc1cccc(N2CCN(c3nc4ccc(C(=O)c5ccccc5)cc4n4cnnc34)CC2C)c1 (stereo not given),2,-0.1
CCOc1ccccc1N1CC(c2nc3ccccc3n2CCCOc2ccccc2)CC1=O (stereo not given),-7,2.1
COc1ccc(-n2cc(C(=O)NC(C)c3ccccc3)c3ccccc3c2=O)cc1 (stereo not given),9,2.1
COc1ccccc1N1CCN(S(=O)(=O)c2ccc3c(c2)CCCN3C(C)=O)CC1,-5,1.6
COc1ccccc1CNC(=O)c1ccc(-c2nc(CS(=O)c3ccc(C)cc3)c(C)o2)cc1 (stereo not given),-2,-0.8
O=C(NCCCO)C(=O)Nc1c2c(nn1-c1ccccc1)CSC2,-5,-0.2
CCn1c2c(c(=O)n3ncc(C(=O)Nc4ccc(OC(F)(F)F)cc4)c13)CN(Cc1ccc(OC)cc1)CC2,-15,2.2
COc1cc(NC(=O)Cn2nc3c(cc2=O)CC(C)CC3)cc(OC)c1OC (stereo not given),0,-0.8
Cc1ccc(C)c(S(=O)(=O)n2nc(C)c(S(=O)(=O)N3CCC(C)CC3)c2C)c1,-10,-0.6
COc1ccc(NC(=O)c2ccc3c(c2)N(Cc2cccc(Cl)c2)C(=O)c2ccccc2S3=O)cc1Cl (stereo not given),-1,0.5

# Part of the list above, set out differently.
# Each structure is followed by: TRPML1 inh	TRPML1 ag
> CCOc1cc(C2c3c(oc4ccccc4c3=O)C(=O)N2Cc2ccc3c(c2)OCO3)ccc1O (stereo not given)
    -2	0.2
> CCOc1ccc2c(c1)c(=O)c(C(=O)c1ccc(CC)cc1)cn2CC(=O)Nc1ccc2c(c1)OCCO2
    18	-0.3
> COc1ccccc1NC(=O)N1c2ccccc2Sc2ccccc21
    11	2.0
> Cc1ccc(NC(=O)c2sc(-n3nc(C)c(CCC(C)C)c3C)nc2C)cc1C
    10	0.9
> CCOC(=O)c1c(C)n(-c2ccccc2)c2ccc(OC(=O)c3ccc(OCC)c(OCC)c3)cc12
    -3	0.0
> Cc1cccc(N2CCN(c3nc4ccc(C(=O)c5ccccc5)cc4n4cnnc34)CC2C)c1 (stereo not given)
    2	-0.1
> CCOc1ccccc1N1CC(c2nc3ccccc3n2CCCOc2ccccc2)CC1=O (stereo not given)
    -7	2.1
> COc1ccc(-n2cc(C(=O)NC(C)c3ccccc3)c3ccccc3c2=O)cc1 (stereo not given)
    9	2.1
> COc1ccccc1N1CCN(S(=O)(=O)c2ccc3c(c2)CCCN3C(C)=O)CC1
    -5	1.6
> COc1ccccc1CNC(=O)c1ccc(-c2nc(CS(=O)c3ccc(C)cc3)c(C)o2)cc1 (stereo not given)
    -2	-0.8
> O=C(NCCCO)C(=O)Nc1c2c(nn1-c1ccccc1)CSC2
    -5	-0.2
> CCn1c2c(c(=O)n3ncc(C(=O)Nc4ccc(OC(F)(F)F)cc4)c13)CN(Cc1ccc(OC)cc1)CC2
    -15	2.2

# Next records follow:
canonical_smiles,TRPML1 inh,TRPML1 ag
CC1=C(C(=O)Nc2ccccc2Cl)C(c2cccc(O)c2)n2ncnc2N1 (stereo not given),-7,0.5
CCOc1ccc(CCNc2ncnc3onc(-c4ccc(F)cc4)c23)cc1OCC,-13,1.8
COc1cccc(NC(=O)CSc2nnc(NC(=O)NC3CCCCC3)s2)c1,-10,2.1
Cn1nnnc1SCCCNCc1cccc(OCc2ccc(Cl)cc2)c1,-6,0.3
CCC(CC)C(=O)Nc1cc(-c2nc3cccnc3s2)ccc1C,3,0.8
CCC(NC(=O)Nc1ccc(OC)c(OC)c1)c1c(-n2cccc2)sc2c1CCN(C)C2 (stereo not given),15,0.7
CCC(=O)NNc1ncnc2c1cnn2-c1ccc(C)c(Cl)c1,-5,-0.4
CCS(=O)(=O)CCSc1nc(-c2ccc(Br)cc2)cc(-c2ccccc2)c1C#N,2,0.0
CC(CNC(=O)C1CCN(Cc2cc3ccccc3n2Cc2ccccc2)CC1)c1ccccc1 (stereo not given),-16,1.3
Cc1ccc(C(=O)N2CCN(c3ccccc3F)CC2)cc1NC(=O)c1nsc2ccccc12,-4,1.3
COc1ccc(NC(=O)CN2C(=O)C(C)(C)c3ccccc32)cc1Cl,-12,-1.0
O=C(Nc1c(-c2ccc(F)cc2)nc2ccccn12)c1ccccc1F,1,0.0
Cc1nc2c(-c3ccc(F)cc3)c(C)nn2c(C)c1CCC(=O)NCc1ccc(F)cc1,8,-0.3
Cc1cc(C)cc(NC(c2nnc(-c3cccc(F)c3)o2)c2ccc(F)cc2Cl)c1 (stereo not given),-6,0.2
Cc1ccc(N(CC(=O)NCCSc2ccccc2)S(=O)(=O)c2ccc(F)cc2)cc1,-7,0.1
CN1C(=O)c2ccccc2Sc2ccc(NC(=O)c3ccc(C#N)cc3)cc21,10,4.0
Cc1ccc2c(c1)-c1onc(C(=O)N3CCN(c4cccc(C)c4C)CC3)c1CO2,-22,1.4
O=C(NCCc1csc(-c2ccc(F)cc2)n1)c1ccc(Br)o1,12,2.1
COC(=O)C1=C(C)N(C(C)C)C(=O)C1(NC(=O)c1ccc(C(C)(C)C)cc1)C(F)(F)F (stereo not given),-19,-0.6
CCOC(=O)Cn1c(=O)n(CC2CCCO2)c2nc(-c3ccccc3F)nc(C(N)=O)c21 (stereo not given),12,3.5
COC(=O)c1ccccc1NC(=O)c1cnc2sc(N3CCOCC3)nn2c1=O,9,0.2
COc1ccc(-c2nnn3c2nc(NCc2ccc(C)cc2)c2ccccc23)cc1,10,-0.5
CCc1ccc(CNC(=O)COc2cc(=O)n(CC)c3ccccc23)cc1,-11,1.9
COc1cccc(C2C(C(=O)Nc3ccccc3)=C(C)Nc3nc(-c4ccccc4)nn32)c1 (stereo not given),-12,0.2
O=C(CSc1nc(=O)n(Cc2ccco2)c2c1CCC2)Nc1ccccc1C(F)(F)F,2,1.0
O=C(NCCCN1CCOCC1)c1ccc2c(c1)N(Cc1cccc(Cl)c1)C(=O)c1ccccc1S2,17,14
Cc1ccccc1CNC(=O)C(C)N(c1ccccc1)S(C)(=O)=O (stereo not given),39,-0.8
CCOc1ccccc1-n1nnc(-c2nc(-c3ccccc3C)no2)c1C,49,3.9
Cc1ccc(CNC(=O)c2c[nH]n3c(=O)c(Cc4ccc(Cl)cc4)c(C)nc23)cc1,-2,0.3
CCCCN(C)C(=O)CSc1nc2ccccc2nc1Cc1ccc(C)cc1,67,1.2
Cc1cc(C)n2c(Nc3ccc4c(c3)OCCO4)c(-c3ccc(Cl)cc3)nc2n1,40,0.5
CCOC(=O)Cn1cc2c(c1-c1ccc(Cl)cc1)c(=O)n(C)c(=O)n2C,10,-0.9
CCCCSCCCNC(=O)C1CCC(CNS(=O)(=O)c2c(C)cc(C)cc2C)CC1 (stereo not given),3,1.9
CCOCCCNC(=O)c1ccc2c(=O)n(CCc3ccc(OC)c(OC)c3)c(=O)[nH]c2c1,-7,-0.2
COCCCn1c(SCC(=O)NCc2ccccc2)nc2c(sc3ccccc32)c1=O,-15,-0.3
CCOC(=O)c1c(C)[nH]c(C)c1S(=O)(=O)N1CCCC(C(=O)Nc2ccc(C)c(N(C)C)c2)C1 (stereo not given),-16,-1.1

# An excerpt (hit frequency here may not be typical).
